Bioassay records (PubChem BioAssay)
Kir21 inh = Kir2.1 (mouse) channel inhibition; P35561; B-score at 10 µM; 310,000 tested, 0.85% active; HEK293-Kir2.1, FluxOR thallium flux fluorescence; active compounds read low;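 active means fluorescence ratio B-score at or below minus 3 SD of library scores, with starting-brightness B-score within 2 SD, cut at about -4.2 in these data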;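 further: channel flux triggered by added potassium and thallium sulfate stimulus; B-score of peak minus minimum fluorescence over baseline after thallium stimulus; more negative B-score means stronger Kir2.1 block with less thallium influx; some compounds called inactive have numbers as strong as hits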
Target sequence (P35561 whole entry, looked up): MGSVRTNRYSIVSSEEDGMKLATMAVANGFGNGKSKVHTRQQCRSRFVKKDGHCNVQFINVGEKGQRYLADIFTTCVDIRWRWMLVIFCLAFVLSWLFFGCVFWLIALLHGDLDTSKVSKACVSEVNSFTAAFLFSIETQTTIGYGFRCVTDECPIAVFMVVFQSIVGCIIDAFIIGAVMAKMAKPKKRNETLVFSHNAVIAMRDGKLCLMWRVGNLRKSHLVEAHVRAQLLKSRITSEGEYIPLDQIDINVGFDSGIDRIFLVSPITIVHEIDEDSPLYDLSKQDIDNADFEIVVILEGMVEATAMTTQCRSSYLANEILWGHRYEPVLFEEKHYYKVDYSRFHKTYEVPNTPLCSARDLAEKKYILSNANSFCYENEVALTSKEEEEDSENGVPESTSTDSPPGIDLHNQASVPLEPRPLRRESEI
* = called active by the depositor. A portion of the library; most or all hits stand in other tables.

What do the screens show for `Cc1cc(=O)n(C)c(=O)n1CCCCCCOc1ccc([N+](=O)[O-])cc1`?
Kir21 inh: -1.2

What do the screens show for `Cc1ccc(NC(=O)Cn2nnc(-c3ccccc3-n3cnnn3)n2)c(C)c1`?
Kir21 inh: 0.69

How did COC(=O)C1CSC2c3ccccc3C(=O)N12 (stereo not drawn) do in these assays?
Kir21 inh: 0.82

How did CCCCNC(=O)CNC(=O)c1nn(-c2ccc(OC)cc2)c(=O)c2ccccc12 do in these assays?
Kir21 inh: -1.1

Results for CCC(C)[C@H](NC(=O)NCCCN1CCOCC1)C(=O)OC (stereo partly drawn) ?
Kir21 inh: -0.05

What do the screens show for `COc1ccc(Nc2c3c(nc4c(-c5ccccc5)c(C)nn24)CCC3)cc1`?
Kir21 inh: 0.19

What do the screens show for `CCCc1cc(=O)oc2c(C)c(OC(C)C(=O)NCCN3CCOCC3)ccc12` (stereo not drawn)?
Kir21 inh: 0.49

What do the screens show for `CC(C)NC(=O)CSCc1c(Cl)cccc1Cl`?
Kir21 inh: 0.86

What do the screens show for `COC(=O)c1ccc(NC(=O)COc2ccc3c(c2)OCO3)cc1`?
Kir21 inh: -0.22

What do the screens show for `CC(C)CC(=O)N1CCN(c2ccc(NC(=O)c3ccco3)cc2)CC1`?
Kir21 inh: 1.3

How did Cc1nc(SCC(=O)Nc2ccc(C)c(F)c2)c2oc3ccccc3c2n1 do in these assays?
Kir21 inh: 0.16

What do the screens show for `COCC(=O)Nc1cc(C(=O)OC)cc(C(=O)OC)c1`?
Kir21 inh: -1.2

Results for O=c1c2ccccc2nc2c3ccccc3cnn12 ?
Kir21 inh: 1.5

How did O=C(NCCN1CCCC(O)C1)c1cc(COc2c(F)cccc2F)on1 (stereo not drawn) do in these assays?
Kir21 inh: -0.45

Results for O=[N+]([O-])c1cc(S(=O)(=O)N2CCCC2)ccc1N/N=C/c1ccncc1 ?
Kir21 inh: -0.35

Nothing new here: 3 of the compounds above.
What do the screens show for `CC(C)NC(=O)CSCc1c(Cl)cccc1Cl`?
Kir21 inh: 0.86

What do the screens show for `COC(=O)c1ccc(NC(=O)COc2ccc3c(c2)OCO3)cc1`?
Kir21 inh: -0.22

What do the screens show for `CC(C)CC(=O)N1CCN(c2ccc(NC(=O)c3ccco3)cc2)CC1`?
Kir21 inh: 1.3

(further entries)
What do the screens show for `Cc1ccnc(NC(=O)c2cccc(S(=O)(=O)N3CCN(c4ccc(F)cc4)CC3)c2)c1`?
Kir21 inh: 0.48

How did COc1ccc(-c2noc(CSc3nc(N)c(-c4ccccc4)c(=O)[nH]3)n2)cc1 do in these assays?
Kir21 inh: 0.21

What do the screens show for `CCC(=O)Nc1cc(C(F)(F)F)ccc1N1CCOCC1`?
Kir21 inh: 1.5

Results for COCCN(CCOC)C(=S)Nc1cc(S(=O)(=O)N(C)C)ccc1C ?
Kir21 inh: 0

What do the screens show for `O=C(CCn1ccc2ccccc21)Nc1ccc(N2CCOCC2)cc1`?
Kir21 inh: 1.2

What do the screens show for `O=C(Nc1nc2ccccc2s1)c1cnccn1`?
Kir21 inh: 2.1

How did O=C1NC2(CCC3(CC2)OCCO3)NN1c1ccccc1 do in these assays?
Kir21 inh: 0.81

Results for CC(=O)Nc1nc2ccccc2n1CCN(C)C ?
Kir21 inh: 0.07

How did O=C(CN1C(=O)CCSc2ccccc21)Nc1ccc2c(c1)OCCO2 do in these assays?
Kir21 inh: -0.05

What do the screens show for `C[C@]1(C(=O)NCCCNc2ncc(C(F)(F)F)cc2Cl)C=C[C@@H](Cc2ccccc2)N1C(=O)c1ccccc1`?
Kir21 inh: -1

How did CCOC(=O)N1CCN(C(=O)c2ccc(OC)c(OC)c2)CC1 do in these assays?
Kir21 inh: -0.3

What do the screens show for `Cn1nnnc1SCc1nc2scc(-c3ccccc3)c2c(=O)[nH]1`?
Kir21 inh: -2.2

Results for O=C(NCc1ccc(F)cc1)c1cc2c(s1)CCCC2 ?
Kir21 inh: -0.92

Results for Cc1ccc(Oc2nc3ccccc3n3c(C)nnc23)c(C)c1 ?
Kir21 inh: -0.02

Results for COc1cccc(-n2c(Cc3cc(=O)[nH]c(=O)[nH]3)nnc2SC(C)C)c1 ?
Kir21 inh: 0.89

Results for Nc1nnc(CSc2ccc(Cl)cc2)s1 ?
Kir21 inh: 0.59

How did Cc1onc(C(=O)N2C(C)CCCC2C)c1[N+](=O)[O-] (stereo not drawn) do in these assays?
Kir21 inh: -0.52

How did CC(C1CC1)N(C(=O)NC1CCS(=O)(=O)C1)c1ccccc1 (stereo not drawn) do in these assays?
Kir21 inh: -0.27

What do the screens show for `Cc1cnc(NS(=O)(=O)c2ccc(Cl)cc2)c(Br)c1`?
Kir21 inh: 0.22

What do the screens show for `CCOC(=O)CCc1c(C)c(C#N)c2nc3ccccc3n2c1-n1ccnc1C`?
Kir21 inh: 0.18

How did C[C@H](NC(=O)Nc1ccc2c(c1)OCCO2)C(=O)O do in these assays?
Kir21 inh: 0.02

What do the screens show for `CCN(CC)CCOC(=O)c1ccc(Cl)cc1`?
Kir21 inh: -0.67

Results for CC(C)NC(=O)CCn1nc(-c2ccc(Cl)cc2)c2ccccc2c1=O ?
Kir21 inh: 1.2

What do the screens show for `CCOC(=O)c1c(C)[nH]c(C(=O)/C(C#N)=C/c2ccc(OC(F)F)c(OC)c2)c1C`?
Kir21 inh: -2.1

How did CCOc1cc(/C=N/NC(=O)Cc2ccc(C(F)(F)F)cc2[N+](=O)[O-])c(Br)cc1OC do in these assays?
Kir21 inh: -0.87

How did COC(=O)CSc1nc2sccc2c(=O)n1-c1ccccc1 do in these assays?
Kir21 inh: 1.8

How did Cc1cccn2c(=O)c3cc(C(=O)NC4CCCCC4)sc3nc12 do in these assays?
Kir21 inh: 1.1

Results for COc1ccccc1/C=C/c1nc2ccc(OC(C)=O)cc2c(=O)o1 ?
Kir21 inh: -0.19

Results for CC1(C)CC(=O)C2=C(C1)NC(=O)CC2c1cc2c(cc1Br)OCO2 (stereo not drawn) ?
Kir21 inh: -0.34

How did CCCCNC(=S)N(C)/N=C/c1ccccc1C(=O)O do in these assays?
Kir21 inh: 1.1

How did CCN(CC(=O)NCc1ccccn1)S(=O)(=O)c1ccc(Cl)cc1 do in these assays?
Kir21 inh: 0.38

What do the screens show for `Cc1ccccc1NC(=O)NC1CCCCCCC1`?
Kir21 inh: 1.1

What do the screens show for `COC(=O)c1c(F)c(F)c(N2CCOCC2)c(F)c1F`?
Kir21 inh: -0.01

What do the screens show for `C[N+](C)(C)c1ccc(/C=N/Nc2nc(Cl)c(C#N)c(Cl)c2Cl)cc1`?
Kir21 inh: 1.2

What do the screens show for `O=C(Oc1oc(-c2ccco2)nc1C=Nc1ccccc1)c1ccco1`?
Kir21 inh: -1.6

What do the screens show for `CCCCOc1ccc(C2=NNC(=O)CC2)cc1`?
Kir21 inh: -0.87

How did CCOc1ccc(NC(=O)c2ccc(CC)s2)c([N+](=O)[O-])c1 do in these assays?
Kir21 inh: -0.21

How did CC1CCCC(NC(=O)CSc2nnc(N)s2)C1C (stereo not drawn) do in these assays?
Kir21 inh: 0.01

What do the screens show for `O=C(Nc1nc2ccccc2n1Cc1ccccc1)c1ccc(COc2ccccc2[N+](=O)[O-])o1`?
Kir21 inh: -1.5

How did CCOC(=O)CSc1nnc(CNc2cccc(Cl)c2)n1C do in these assays?
Kir21 inh: -0.39

Results for COC(=O)Cn1cc(/C=C/c2cc[n+](C)cc2)c2ccccc21 ?
Kir21 inh: -9.3

What do the screens show for `O=C1Cc2ccccc2C(=O)N1c1cccc(Cl)c1`?
Kir21 inh: -1.4

What do the screens show for `CCC(CO)NC1=C([N+](=O)[O-])C(=O)CC(C)(C)C1` (stereo not drawn)?
Kir21 inh: 0.1

Results for O=C(O)CNC(=O)CCCn1nnc2ccccc2c1=O ?
Kir21 inh: -0.01

How did COc1ccc2[nH]c(=O)c(CN(C(=O)c3ccccn3)C3CCCCC3)cc2c1 do in these assays?
Kir21 inh: 0.5

What do the screens show for `Cc1ccc2nc(-c3ccncc3)cc(C(=O)N3CCOCC3)c2c1`?
Kir21 inh: -1.8

What do the screens show for `Cc1ccccc1C(=O)Oc1ccccc1C(=O)N1CCOCC1`?
Kir21 inh: 0.39

Results for CCOC(=O)N1CCN(Cc2nc(Cc3cccc(F)c3)no2)CC1 ?
Kir21 inh: 2

Results for Cc1ccsc1/C=N/NC(=O)Cc1cc(=O)[nH][nH]1 ?
Kir21 inh: 0.01

How did Cc1ccnc(SCCn2c(Br)nc3c2c(=O)[nH]c(=O)n3C)n1 do in these assays?
Kir21 inh: -0.48

What do the screens show for `Clc1nc(Oc2ccccc2)nc(-c2cn(-c3ccccc3)c3ccccc23)n1`?
Kir21 inh: 0.22

What do the screens show for `CC(/C=C/c1ccccc1F)=N\NC(=O)c1ccccc1`?
Kir21 inh: 0

How did Cc1ccc(S(=O)(=O)CC(=O)c2ccc(C)c([N+](=O)[O-])c2)cc1 do in these assays?
Kir21 inh: -0.12

How did O=C(CSc1nnc2ccccn12)Nc1ncc(Cl)cc1Cl do in these assays?
Kir21 inh: -0.68

What do the screens show for `CCOc1ccc(C(=O)NNC2CC(=O)N(Cc3ccc(Cl)cc3)C2=O)cc1OC` (stereo not drawn)?
Kir21 inh: -0.24

Results for O=C(Nc1nnc(Cc2ccc([N+](=O)[O-])cc2)s1)Nc1ccccc1F ?
Kir21 inh: -0.04

How did Cc1cc(-c2ccc(S(=O)(=O)N3CCN(c4cccc(C(F)(F)F)c4)CC3)s2)on1 do in these assays?
Kir21 inh: -0.31

Results for Cc1oc2ccc(OCc3cccc(Cl)c3)cc2c1C(=O)O ?
Kir21 inh: 0.76

What do the screens show for `CC1CCN(CCCNC(=O)C2CCN(S(=O)(=O)N3CCCCC3)CC2)CC1`?
Kir21 inh: -0.52

Results for Nc1nc(SCC(=O)c2cccs2)n[nH]1 ?
Kir21 inh: -0.24

What do the screens show for `CC(C)(C)CN1CCNC(=O)C1CC(=O)N1CCN(c2ccccc2)CC1` (stereo not drawn)?
Kir21 inh: -2.1

How did NC(=O)CC(NC(=O)Cc1cccc2ccccc12)c1ccc(N2CCC(Cc3ccccc3)CC2)c([N+](=O)[O-])c1 (stereo not drawn) do in these assays?
Kir21 inh: -0.21

How did CC(NC(=O)c1ccccc1F)C12CC3CC(CC(C3)C1)C2 (stereo not drawn) do in these assays?
Kir21 inh: -0.76

How did COc1ccc(-c2noc(CSc3nc4sc(C)c(C)c4c(=O)n3-c3ccccc3)n2)cc1 do in these assays?
Kir21 inh: -0.44

How did O=C(Cc1ccc(Cl)cc1)Nc1ccc(S(=O)(=O)N2CCOCC2)cc1 do in these assays?
Kir21 inh: 1

Results for Cc1ccc[n+](/C(C(=S)NCc2ccco2)=C(/[O-])c2ccccc2Cl)c1 ?
Kir21 inh: 1

Results for CC1CN(S(=O)(=O)c2ccc(C(=O)Nc3nc(-c4cc5ccccc5o4)cs3)cc2)CC(C)O1 (stereo not drawn) ?
Kir21 inh: -0.05

How did N#Cc1c(-c2ccccc2)cc(-c2ccccc2)nc1SCc1nnc(-c2ccccc2)o1 do in these assays?
Kir21 inh: -0.29

Results for Cn1c(=O)c2c(nc(CN3CCN(C(=O)c4ccco4)CC3)n2CC(N)=O)n(C)c1=O ?
Kir21 inh: -0.12

Results for O=C(N/N=C\c1ccccc1)c1cccc(C(=O)N/N=C\c2ccccc2)n1 ?
Kir21 inh: 0.32

What do the screens show for `CCOC(=O)C1C(=O)OC(C)(C)C1C(C)C(=O)c1ccc(C)cc1` (stereo not drawn)?
Kir21 inh: -0.1

What do the screens show for `CCOC(=O)c1c(C)nc2sc(C(=O)Nc3ccc(OC)cc3)c(N)c2c1-c1ccc(OC)cc1`?
Kir21 inh: -0.03

What do the screens show for `COc1cc(C(=O)OCC(=O)N(C)c2ccccc2)cc(OC)c1OC`?
Kir21 inh: 3.1

Results for O=C(NN=C1CCCC1)c1cc(Br)ccc1O ?
Kir21 inh: 0.85

What do the screens show for `Cn1c(CN2CCOCC2)nc2cc(NC(=O)c3ccc(F)cc3)ccc21`?
Kir21 inh: -0.31

Results for C=CCN1N=C(/C=C/c2ccccc2)CCC1=O ?
Kir21 inh: -1.1

What do the screens show for `NC(=O)CSc1nnc(-c2cccnc2)n1Cc1ccccc1`?
Kir21 inh: -0.23

What do the screens show for `Nn1cnnc1N/N=C/c1ccc(Cl)cc1Cl`?
Kir21 inh: 0.84

What do the screens show for `CCn1c(=O)c2ccccc2n(Cc2ccc([N+](=O)[O-])cc2)c1=O`?
Kir21 inh: -2.2

Results for Cc1cc([N+](=O)[O-])nn1CCC(=O)NC1CCCCCC1 ?
Kir21 inh: 0.39

What do the screens show for `C#CCOCCOCCOCCNc1nc(N2CCN(C(=O)[C@H]([C@@H](C)CC)n3cc([C@@H](N)CC(C)C)nn3)CC2)nc(N2CCN(C(=O)[C@H](Cc3ccc(O)cc3)n3cc([C@@H](N)C(C)CC)nn3)CC2)n1` (stereo partly drawn)?
Kir21 inh: 1.9

Results for COc1ccccc1CNC(=O)[C@H](C)NC(=O)[C@@H]1Cc2ccccc2CN1 ?
Kir21 inh: -1.5

Results for O=C(CC12CC3CC(CC(C3)C1)C2)NCC(=O)N1CCc2ccccc2C1 ?
Kir21 inh: 2

Results for Cc1ccc2c(c1)C(O)(C1COC(C)(C)CC1=O)C(=O)N2C (stereo not drawn) ?
Kir21 inh: -1.6

Results for Cc1c(Cl)cccc1NC(=O)N1CCCC1 ?
Kir21 inh: 0.02

Results for CCC1CCC(C(=O)NC(CCSC)C(=O)NCCN(CC(C)C)CC(C)C)CC1 (stereo not drawn) ?
Kir21 inh: 0.16

Results for CCCCNC(=O)CSc1nc2ccccc2c(=O)n1CCNC(C)=O ?
Kir21 inh: -0.45

Results for O=C(CNC(=O)c1cc2ccccc2o1)NCc1cccs1 ?
Kir21 inh: -0.32

Molecules shown so far that have a cyano group, in the order listed:
What do the screens show for `CCOC(=O)CCc1c(C)c(C#N)c2nc3ccccc3n2c1-n1ccnc1C`?
Kir21 inh: 0.18

What do the screens show for `CCOC(=O)c1c(C)[nH]c(C(=O)/C(C#N)=C/c2ccc(OC(F)F)c(OC)c2)c1C`?
Kir21 inh: -2.1

What do the screens show for `C[N+](C)(C)c1ccc(/C=N/Nc2nc(Cl)c(C#N)c(Cl)c2Cl)cc1`?
Kir21 inh: 1.2

How did N#Cc1c(-c2ccccc2)cc(-c2ccccc2)nc1SCc1nnc(-c2ccccc2)o1 do in these assays?
Kir21 inh: -0.29
